Source: PubChem (several laboratories)
Env fusion inh – blocks HIV Env-driven cell-cell fusion; HeLa-JRFL Env/CEM21 cell fusion, luciferase; inhibition, % at 12.3 µM; 360,000 tested, 1.1% active; AID 651610;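 active = mean replicate inhibition score of at least 50 and every replicate individually at or above 50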;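 note: 0% = plate neutral controls and 100% = maraviroc near 300 nM; one replicate is shown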
PABP FP inh – blocks human PABP binding to poly(A) RNA; P11940; fluorescence polarization; inhibition, % at 35 µM; 290,000 tested, 1% active;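 active = 50% or more with normal probe brightness, or confirmed in later tests; about a fifth of its hits are not listed in these tables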;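 note: calls also rest on retests at 20 µM and on dose response follow-up; controls were probe without protein and protein plus probe with vehicle; some compounds called inactive have numbers as strong as hits; many hits fall short of the cut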
Target sequence (P11940 whole entry, looked up): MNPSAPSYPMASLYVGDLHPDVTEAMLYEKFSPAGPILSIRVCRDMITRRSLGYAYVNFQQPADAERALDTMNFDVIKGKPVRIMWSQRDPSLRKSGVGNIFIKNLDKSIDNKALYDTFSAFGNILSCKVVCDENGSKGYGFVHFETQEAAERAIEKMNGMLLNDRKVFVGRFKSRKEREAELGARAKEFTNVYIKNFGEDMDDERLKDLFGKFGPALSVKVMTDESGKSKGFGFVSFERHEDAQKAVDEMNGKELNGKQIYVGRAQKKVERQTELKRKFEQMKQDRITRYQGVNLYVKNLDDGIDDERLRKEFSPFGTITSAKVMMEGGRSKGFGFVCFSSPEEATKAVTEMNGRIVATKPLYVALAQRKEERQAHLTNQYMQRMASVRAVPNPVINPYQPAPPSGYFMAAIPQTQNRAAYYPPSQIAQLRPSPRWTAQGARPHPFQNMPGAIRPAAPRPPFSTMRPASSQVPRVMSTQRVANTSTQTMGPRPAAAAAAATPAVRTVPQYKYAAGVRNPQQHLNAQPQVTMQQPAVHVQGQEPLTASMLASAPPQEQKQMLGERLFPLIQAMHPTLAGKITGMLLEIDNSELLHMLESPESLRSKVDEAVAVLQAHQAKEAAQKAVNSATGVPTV
Yeast UUG start – alters start codon recognition fidelity in yeast; 350,000 tested, 0.13% active; activity score, % at 18.7 µM; AID 602363; S. cerevisiae UUG-firefly luciferase reporter, luminescence/redox ratio;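 active = replicate mean at a twofold rise or more, about +100% in these data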;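 note: firefly luciferase made from a UUG start codon reports start codon fidelity; reporter light over untreated wells divided by growth signal over untreated wells; some hits fall short of that in this replicate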
CSC inhib – cancer stem cell inhibition; cancer stem cell-like cells viability, luminescence; inhibition, % at 7.5 µM; 300,000 tested, 1.1% active; AID 2717;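 active = mean at 75% or more and at least half the replicates too; tested in HMLE shEcad cells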;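 note: 0% = median of negative and 100% = median of positive control wells; the first replicate is given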
Rce1 inh – yeast Ras-converting enzyme inhibition; 290,000 tested, 0.27% active; AID 2563; calls only; yeast membranes, quenched prenylated peptide cleavage fluorescence; Q03530;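 active = fall in fluorescence gain of 50% or more versus controls, with final raw signal at or below 3038400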;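 note: plate controls were neutral control wells for no effect and wells lacking membranes for full effect; tested at 10 µM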
Target sequence (Q03530 whole entry, looked up): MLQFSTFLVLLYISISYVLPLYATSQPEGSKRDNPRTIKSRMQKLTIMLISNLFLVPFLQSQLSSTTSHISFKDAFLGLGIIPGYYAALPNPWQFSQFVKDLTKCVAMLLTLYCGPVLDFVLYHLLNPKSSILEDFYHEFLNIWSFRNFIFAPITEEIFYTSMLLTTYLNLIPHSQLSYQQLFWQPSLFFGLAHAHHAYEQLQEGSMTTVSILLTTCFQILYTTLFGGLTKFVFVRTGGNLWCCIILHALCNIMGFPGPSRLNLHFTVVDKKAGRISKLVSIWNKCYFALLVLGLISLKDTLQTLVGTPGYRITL
MT1-MMP act inh – MT1-MMP (human) activation inhibition; P50281; HT1080 RFP-PRO-GFP cells, GFP/RFP ratio fluorescence, overnight; percent of plate control window, DMSO zero; GFP/RFP ratio change, % at 20 µM; 360,000 tested, 0.061% active; AID 651647;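 active = GFP/RFP ratio change of at least 30% with cell ATP level not reduced by more than half and red fluorescence within 50% of control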; note: strong numbers were not always called active
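Compound: 20 µM single dose, 1% DMSO / System: HT1080 RFP-PRO-GFP cells / Controls: DMSO and RFP-L50D-GFP cell wells / Read-out basis: GFP/RFP fluorescence ratio / Schedule: overnight compound exposure at 37 °C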
eIF4H inh – inhibitors of RNA binding by human eIF4H; eIF4H fluorescence polarization binding assay; 290,000 tested, 0.94% active; inhibition, % at 35 µM; Q15056;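 active = 50% or more with normal probe brightness, or confirmed in later tests; about a fifth of its hits are not listed in these tables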;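 note: calls also rest on retests at 20 µM and on dose response follow-up; 0% = protein and probe with vehicle and 100% = probe without protein; strong numbers were not always called active; many hits fall short of the cut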
eIF4H inh retest – also measured in eIF4H inh; calls as there; inhibition, %; compound at 20 µM; confirmation average;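 mean of two retest wells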
PABP FP inh retest – further read-out of PABP FP inh, marked with its call; inhibition, %; compound at 20 µM; confirmation repeats;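 mean of two retest wells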
MT1-MMP act inh RFP – recorded beside MT1-MMP act inh, whose call it bears; RFP signal change, %; measured here: RFP expression control read;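 0 = vehicle wells; hits needed this value within 50% of zero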
* marks the source's active call; other numbers are inactive results; i = inactive; . = not tested or not shown.

SMILES	Env fusion inh	PABP FP inh	Yeast UUG start	CSC inhib	Rce1 inh	MT1-MMP act inh	MT1-MMP act inh RFP	eIF4H inh	others
CCOc1nc(NC(=O)NS(=O)(=O)c2cccc(Cl)c2)nc(-c2ccccc2)n1	13	8	-19	-10	i	-2	0	4
Cc1cc(NC2CCCCC2)nc(NCc2ccccc2)n1	54*	6	-23	16	i	-9	-21	-5
CCOC(=O)CN(C(=O)CSc1nnc(CNc2ccc(C)cc2C)n1CC)c1ccccc1	-27	1	-5	-5	i	4	0	17
CN(C)S(=O)(=O)c1ccc(NC(=O)Cn2ccsc2=N)cc1	1	-1	-9	-3	i	-2	-1	3
CC(=O)c1ccc(Oc2ncnc(N)c2[N+](=O)[O-])cc1	28	12	-15	7	i	-12	-7	-10
CC1CCN(S(=O)(=O)c2ccc3c(c2)n(C)c(=O)n3C)CC1	38	-1	-31	-6	i	5	3	-4
COC(=O)C1=C(C)NC(=O)/C1=C\c1cc(C)n(-c2cccc(C)c2)c1C	.	119*	-4	-13	i	-12	7	121	eIF4H inh retest=24;PABP FP inh retest=64*
N#CC(C#N)=Cc1ccc(OCC(=O)N2CCOCC2)cc1	0	-3	.	8	i	-4	1	-3
CCS(=O)(=O)c1ccc(O)c(NC(=O)COc2ccc(OC)cc2)c1	2	-5	-5	8	i	2	1	-4
Cc1cc(=O)c2ccccc2s1	.	7	-12	5	i	-8	-4	-5
Cc1ccc(NC(=O)CSCC(=O)Nc2ccc(N3CCOCC3)cc2N2CCOCC2)cc1	3	.	-1	.	.	-3	0	.
CC1=C(C(=O)Nc2cccc(C(=O)NC3CCCC(C)C3C)c2)SCCO1 (stereo not drawn)	12	-4	7	-19	i	6	-4	-2
Cc1cccc(NC(=O)C2c3ccccc3C(=O)N3CCc4ccccc4C23)n1 (stereo not drawn)	-35	9	-4	-8	i	-6	-5	1
COc1ccc(CN2CCN(C(C)C)C(CCO)C2)cc1Cn1cccn1 (stereo not drawn)	-5	0	.	-8	i	-1	4	0
CCOC(=O)CN1C(=O)C(O)=C(C(C)=O)C1c1ccc([N+](=O)[O-])cc1 (stereo not drawn)	.	27	-8	9	i	15	1	-2
OCCNCC(O)Cn1ccc2ccccc21 (stereo not drawn)	-87	-2	-10	-12	i	3	8	3
CCOc1ccc(CCNC(=O)COC(=O)Cn2cnc3c2c(=O)n(C)c(=O)n3C)cc1OCC	-40	.	9	-12	i	2	2	.
CN(C)c1ccc(CN2CCCC(O)C2)cc1 (stereo not drawn)	3	0	-14	-24	i	-2	0	-3
NC(=O)CN1CCN(Cc2ccc3c(c2)OCO3)CC1	-10	2	-15	-13	i	-3	3	11
CCOC(=O)N1CC=C2C(C#N)=C(N)C(C#N)(C#N)[C@H](c3cccs3)[C@H]2C1	.	82*	-17	-8	i	-45	1	63*

Random excerpt: six entries already listed, in no set order.
SMILES	Env fusion inh	PABP FP inh	Yeast UUG start	CSC inhib	Rce1 inh	MT1-MMP act inh	MT1-MMP act inh RFP	eIF4H inh	others
CN(C)c1ccc(CN2CCCC(O)C2)cc1 (stereo not drawn)	3	0	-14	-24	i	-2	0	-3
OCCNCC(O)Cn1ccc2ccccc21 (stereo not drawn)	-87	-2	-10	-12	i	3	8	3
N#CC(C#N)=Cc1ccc(OCC(=O)N2CCOCC2)cc1	0	-3	.	8	i	-4	1	-3
Cc1cc(NC2CCCCC2)nc(NCc2ccccc2)n1	54*	6	-23	16	i	-9	-21	-5
CCOc1ccc(CCNC(=O)COC(=O)Cn2cnc3c2c(=O)n(C)c(=O)n3C)cc1OCC	-40	.	9	-12	i	2	2	.
NC(=O)CN1CCN(Cc2ccc3c(c2)OCO3)CC1	-10	2	-15	-13	i	-3	3	11

Later entries:
SMILES	Env fusion inh	PABP FP inh	Yeast UUG start	CSC inhib	Rce1 inh	MT1-MMP act inh	MT1-MMP act inh RFP	eIF4H inh	others
CC(=O)Nc1cccc(NC(=O)CSc2ccc(-c3ccco3)nn2)c1	.	.	-32	-5	i	8	3	.
c1ccc(Cc2c[nH]c3ccccc23)cc1	12	-6	6	2	i	-5	2	3
CCCN(CC(=O)Nc1ccccc1OC)C(=O)CCC(=O)c1ccc(OCC)cc1	2	.	-17	.	.	-3	0	.
COc1ccccc1-c1nc(SC)n[nH]1	-16	14	-34	-11	.	-4	0	45
Cc1ccccc1-c1cc(C(=O)NCc2cccc(C(F)(F)F)c2)nn1CC1CC(c2cccc([N+](=O)[O-])c2)=NO1 (stereo not drawn)	46	.	-5	13	.	8	-3	.
Cc1ccc(C(=O)Nc2cnc3ccccc3c2)cc1	94*	5	-88	20	i	10	-12	-4
O=C(NCc1cccnc1)c1ccc(S(=O)(=O)N2CCCCC2)cc1	-20	5	-16	-12	i	-1	-2	26
NC(CCc1ccccc1)c1csc(Nc2ccc(C(=O)c3ccccc3)cc2)n1 (stereo not drawn)	-10	.	17	.	.	-4	-8	.
CCOC(=O)c1c(NC(=O)CN(C)C2CCN(C)CC2)sc(C(=O)Nc2ccccc2)c1C	-4	-4	.	13	i	-1	0	14
CCOCCCNC(=O)C(c1ccc(OC)cc1)N(Cc1ccc2c(c1)OCO2)C(=O)CNC(C)=O (stereo not drawn)	.	6	-12	-1	i	8	4	0
NCCNc1ccc([N+](=O)[O-])c(NC2CC2)c1	-1	7	.	-23	i	1	-2	-2
CC(=O)Nc1ccc(S(=O)(=O)NCc2ccc(C(=O)NCc3ccc(Cl)cc3)cc2)cc1	.	1	-11	10	i	10	2	-5
Cc1cc(OC(C)C(=O)N2C[C@H]3C[C@@H](C2)c2cccc(=O)n2C3)c2c(C)c(C)c(=O)oc2c1 (stereo partly drawn)	.	5	-4	-11	i	11	5	-18
Cc1cccc(OCc2ccccc2)n1	-18	.	-35	.	.	1	1	.
CC(C)CCn1c(=O)c2sccc2n2c(CCCC(=O)N3CCC(N4CCCCC4)CC3)nnc12	8	-13	-2	15	i	2	2	4
Cc1ccc(S(=O)(=O)N2CCCOC2CNC(=O)C(=O)NCc2ccccn2)cc1 (stereo not drawn)	13	2	-9	6	i	-3	2	5
Cc1ccc(SCC(=O)OCC(=O)NCc2ccco2)cc1	-6	.	-13	.	.	-3	-1	.
CC1Sc2ccc(S(=O)(=O)CCC(=O)NC3CCCC(C)C3C)cc2NC1=O (stereo not drawn)	-1	8	8	18	i	2	-2	-23
COc1cccc(N2CCN(c3c(C#N)c(C(F)(F)F)nn3C)CC2)c1	.	3	13	24	i	-9	-21	-2
CC(NC(=O)Cn1cnnn1)c1cccc(C(F)(F)F)c1 (stereo not drawn)	9	6	-22	6	i	-1	2	8
CCOCCn1c2ccccc2c2nc3ccccc3nc21	-3	-2	-15	5	i	1	2	-11
COc1ccc(-c2ccc(=O)n(CC(=O)Nc3cccc(O)c3)n2)cc1OC	-7	.	-3	-7	i	2	8	.
COC(=O)c1cn(C(=O)c2ccc(OC)c(OC)c2)c2ccccc12	11	-10	12	19	i	1	-2	-4
CNC(=S)N/N=C/c1ccccc1Cl	-20	-6	.	1	i	5	4	2
O=C(Sc1nnnn1C1CCCCC1)c1cccs1	.	23	.	11	i	.	.	21
O=C(OCCN1C(=O)c2ccccc2C1=O)c1cccc(OC(F)F)c1	.	-3	-10	-8	i	4	9	-3
O=C(COc1ccccc1)NCC(=O)N/N=C/c1cc(Br)ccc1OCc1ccccc1	17	0	.	17	i	2	-6	-5
COc1ccc(C(=O)CSc2ncn[nH]2)cc1OC	.	8	-10	10	i	3	1	6
CC1CCC2(CC1)NC(=O)N(CC(=O)N1CCN(c3ccccc3)CC1)C2=O (stereo not drawn)	1	.	-20	-20	.	3	-1	.
COc1ccc(C2N(c3cc(Cl)ccc3OC)C(=O)C3CCCN32)c(OC)c1 (stereo not drawn)	-12	2	-4	-20	i	0	4	-3
c1cncc(CNc2ncnc3ccc(-c4ccc5c(c4)OCCO5)cc23)c1	9	.	-9	.	.	-1	2	.
Cc1ccc(S(=O)(=O)N2CCOC23CCN(C(=O)C(=O)NCCC(C)C)CC3)cc1	-18	.	-1	-4	i	1	-5	.
CCN(CC(=O)Nc1cccc(F)c1)CC(=O)Nc1ccccc1OC	-17	-4	-5	-12	i	-1	-1	-14
CC(C)Cc1nc(SCC(=O)NCc2ccccc2)n[nH]1	.	0	-16	-5	i	3	6	-6
Cc1ccc(S(=O)(=O)N2CCOCC2)cc1NC(=O)Cn1nnc(-c2ccccc2)n1	-83	.	-8	.	.	3	3	.
COc1cccc(NC(=O)CCC2CCN(C(=O)c3cccc(NC(C)=O)c3)CC2)c1	-4	-1	2	12	i	-1	0	2
O=C(O)c1ccc(NC2=C(N3CCOCC3)C(=O)c3ccccc3C2=O)cc1	.	-4	.	-12	i	4	6	2
Cc1ccc(/C=N/NC(=O)Cc2c(F)cccc2Cl)s1	-103	-12	-35	5	i	-2	-1	-2
COc1ccc(/C=N/NC(=S)Nc2ccccc2)cc1COc1ccc(F)cc1	14	11	-17	2	i	-3	5	44
Cc1cccc(C(CC(=O)N2CCCC2)c2ccccc2)c1O (stereo not drawn)	.	2	.	-7	i	2	2	-4
Cc1cccnc1NC(=S)NC(=O)c1cncc(Br)c1	.	-1	-29	-12	i	0	-2	6
COCCn1nnnc1CN1CCOCC1	.	18	3	0	i	1	-2	-9
Cc1ccc(Nc2ccc(-n3ccnc3)nn2)cc1C	.	-7	-20	15	i	-6	2	-4
COc1ccc(S(=O)(=O)N2CCCCCC2)cc1C(=O)OCC(=O)Nc1cc(C)on1	.	-3	.	-4	i	.	.	2
Cc1ccc2c(C)c(C(=O)N(Cc3ccncc3)CC3CCCO3)oc2c1C (stereo not drawn)	22	14	-11	-3	i	-10	-11	-10
Cn1nnc2c[n+](CC(=O)c3ccc4ccccc4c3)cc(Br)c21	-7	26	-7	5	i	-10	-9	3
Cc1cc(NC(=O)COC(=O)c2cnccn2)ccc1Br	.	.	-4	-12	.	-2	4	.
CC(C)OC(=O)CC(=O)CSc1nc2c(cc1C#N)CCCCCC2	-40	-8	-7	-3	i	-7	1	-2
Cc1ccc(S(=O)(=O)NNC(=O)c2ccncc2)cc1[N+](=O)[O-]	7	17	-12	9	i	-3	2	9
CCc1cnccc1CCC(=O)Nc1ccccc1C	7	.	-8	7	i	0	0	.
Cc1ccc(NC(=O)[C@@H]2CCCN2S(=O)(=O)c2ccccc2F)cc1	11	-2	-9	-22	i	-5	-8	-4
COc1ccc(NC(=O)Cc2ccccc2F)cn1	-15	-4	.	8	i	1	5	-7
COc1nnc(-c2ccc(N3CCOCC3)c(NC(=O)c3ccco3)c2)c2ccccc12	.	-6	-2	-39	i	1	0	-7
COc1cc(C=NCC2OCCc3ccccc32)cc(OC)c1 (stereo not drawn)	10	-5	-11	-1	i	0	6	-1
Cc1cc(Cl)ccc1OCC(=O)N/N=C1\CCCc2ccccc21	16	-3	-5	6	.	-1	0	-5
CC(C)(C)c1ccccc1OCC(O)CN1CCN(c2ccccn2)CC1 (stereo not drawn)	5	1	8	4	i	-3	-4	0
COc1ccc(F)cc1-c1cc(C(=O)N2CCc3ccccc3C2)[nH]n1	-9	.	-1	.	.	-2	-1	.
COc1cc(NC(=O)C2CC(=O)N(CCc3ccccc3)C2)cc(OC)c1 (stereo not drawn)	10	.	-2	-6	i	-2	0	.
CCOC(=O)CC(=O)CSc1nc2c(cc1C#N)CCCCC2	.	5	8	4	i	-13	-8	12
CCOC(=O)N1CCC(C(=O)NNC(=O)c2ccc(Cl)cc2Cl)CC1	-2	14	-10	-18	i	2	7	-5
O=C1S/C(=C\C=C\c2ccco2)C(=O)N1c1ccc(O)cc1	-32	2	.	8	i	-1	-2	88	eIF4H inh retest=35;PABP FP inh retest=45

Some of the compounds tested. The share of hits here may be higher or lower than overall.
